# RecA intein inh – blocks M. tuberculosis RecA intein splicing; cell-free RecA intein splicing, fluorescence; inhibition, %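 (about 9 µM by stock and volumes)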; actives 0.75% (n = 290,000); AID 2221; in the data active = inhibition above about 30%; inconclusive = no clear call, values can overlap the other calls;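 note: 0% = vehicle wells and 100% = reference inhibitor control wells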
# Target sequence (P9WHJ3 whole entry, looked up): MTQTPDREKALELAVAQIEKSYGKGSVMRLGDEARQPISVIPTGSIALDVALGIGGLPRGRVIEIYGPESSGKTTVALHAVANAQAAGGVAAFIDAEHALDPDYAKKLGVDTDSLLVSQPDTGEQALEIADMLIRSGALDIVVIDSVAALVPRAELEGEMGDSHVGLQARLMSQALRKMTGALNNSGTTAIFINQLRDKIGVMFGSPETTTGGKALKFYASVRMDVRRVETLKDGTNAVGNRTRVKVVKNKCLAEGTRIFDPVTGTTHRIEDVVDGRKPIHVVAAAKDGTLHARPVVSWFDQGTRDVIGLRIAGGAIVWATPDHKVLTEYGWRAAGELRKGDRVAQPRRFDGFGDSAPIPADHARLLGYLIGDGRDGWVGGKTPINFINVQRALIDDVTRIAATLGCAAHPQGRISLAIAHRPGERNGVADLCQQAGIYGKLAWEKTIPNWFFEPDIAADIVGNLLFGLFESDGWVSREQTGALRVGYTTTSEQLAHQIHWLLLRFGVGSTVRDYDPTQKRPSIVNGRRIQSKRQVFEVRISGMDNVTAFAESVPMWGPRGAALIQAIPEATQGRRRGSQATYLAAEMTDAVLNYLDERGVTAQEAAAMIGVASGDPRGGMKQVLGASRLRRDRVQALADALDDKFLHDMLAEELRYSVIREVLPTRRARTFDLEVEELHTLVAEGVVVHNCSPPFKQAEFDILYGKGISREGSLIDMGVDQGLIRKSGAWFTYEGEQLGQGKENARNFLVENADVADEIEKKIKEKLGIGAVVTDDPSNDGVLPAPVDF
# Mtb H37Rv – M. tuberculosis H37Rv growth inhibitors, H37Rv strain (AID 1626); M. tuberculosis H37Rv growth inhibition; higher % means a stronger effect; inhibition, % at 10 µM; hits with a dose series show IC50 in µM; actives 0.95% (n = 220,000);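 active = confirmed in a dose series; inconclusive = inhibition above 80% but not taken into the dose series; inactive = below 80% or under 30% at every dose of the series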;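 note: bacteria incubated seven days before Alamar blue readout; 0% = bacteria only wells and 100% = bacteria with antibiotic wells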
# Arbovirus inh – blocks arbovirus infection. arbovirus infection cell-based antiviral screen. actives 0.37% (n = 200,000). inhibition, % at 10 µM;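 active = inhibition from about 30%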;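 note: bluetongue infection of BSR cells; cell survival read as ATP light after 72 h; 0% = infected wells without compound and 100% = uninfected wells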
# Mtb betalactam – beta-lactam sensitization of Mtb H37Rv | inhibition, % at 25 µM | M. tuberculosis H37Rv growth with meropenem, percent inhibition; hits of this screen are not shown here | actives 0.27% (n = 330,000);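 active = about 74% or more and at least 40 points above the plate without the antibiotic, then above 30% in a dose series; inconclusive = first-round hits that could not be retested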;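 note: growth measured after seven days incubation then overnight dye step; 0% = bacteria only wells and 100% = bacteria with antibiotic; twin plates without the antibiotic show which effects depend on it; some results filed as inactive read as strong as hits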
# YopH inh – inhibitors of Yersinia enterocolitica YopH tyrosine phosphatase | fluorescence Ex485/Em525 | inhibition, %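 (about 10 µM by stock and volumes)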 | actives 0.16% (n = 140,000);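 active = inhibition of 50% or more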;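 note: controls were vehicle for no effect and minimum signal wells for full effect; inactives centre near -20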
# The depositor's hits bear a star; ? = inconclusive; . = no result given. Only part of the results is shown; count on the stated rates, not on these rows.
SMILES,RecA intein inh,Mtb H37Rv,Arbovirus inh,Mtb betalactam,YopH inh
O=C(O)c1ccc(CSc2ccccn2)cc1,0.6,1%,0,2,.
Cc1cccc(NS(=O)(=O)c2ccc(C(=O)NCCCN3CCCC3=O)cc2)c1C,-0.3,.,.,-5,.
O=C(CN1C(=O)CC(c2ccccc2)=Nc2ccccc21)NC1CCCCC1,-1.1,-13%,-2,1,-7
CCOC(=O)Cn1nnc(-c2ccc(OCC(C)C)cc2)n1,1.2,17µM*,-1,100,-17
Cc1ccccc1CN1CCC(C(=O)Nc2ccc(Oc3cccnc3)cc2)CC1,1.9,.,.,-6,.
CCNc1nc(NCC)nc(SCCOc2ccc(C)cc2)n1,9.3,15%,0,2,-24
COc1cc(CC(=O)NCCc2ccc(S(N)(=O)=O)cc2)cc(OC)c1OC,0.4,-11%,-2,-3,1
Cc1cccc(NC(=O)CSc2nc(C3CC3)nc3ccccc23)c1,0.6,.,.,3,.
O=[N+]([O-])c1ccc(P(=O)(Cc2ccccc2)c2ccccc2O)cc1 (centres undefined),-0.7,.,.,6,.
O=C(CCCCCNc1nc(=S)[nH]c2ccccc12)NCc1ccccc1Cl,-2.6,-6%,-14,14,.
Cc1ccc(Nc2c(-c3ccccc3O)nc3cnccn23)cc1,7.9,11%,-10,-2,.
CC(=O)c1ccc(NC(=O)C2C3CCC(C3)C2C(=O)O)cc1 (centres undefined),-0.7,.,.,-2,.
CCCOc1ccc(C(=O)Nc2nc(C)c(Cc3ccc4c(c3)OCO4)s2)cc1,0.8,2%,-14,0,-10
COc1ccc(NC(=O)c2ccc3c(SCC(=O)O)c4c(nc3c2)CCCC4)c(OC)c1,15,2%,10,-3,.
C=CC[N+](C)(C)C/C(Cl)=C(\Cl)c1ccccc1,6.4,3%,1,-10,7
O=C(NCC1CCCO1)C1CCC(=O)N1Cc1ccc(F)cc1 (centres undefined),-0.3,-10%,4,-5,-5
COc1ccc(Cn2nnnc2C(c2cccs2)N2CCOCC2)cc1 (centres undefined),-0.9,-5%,-2,-13,4
C=C(C)CNC(=S)NNC(=O)c1cc(C)oc1C,0.5,-5%,-2,-3,-19
COC(=O)c1c(C(=O)OC)c(-c2ccc(C)cc2)n2c1CCC2,.,2%,1,8,12
Cc1ccc(Cn2ccccc2=N)cc1,0.9,.,.,9,.
CC(C)c1ccc(N(CC(=O)N/N=C/c2ccc(OC3CSC3)cc2)S(=O)(=O)c2ccccc2)cc1,0.8,9%,13,-4,-26
COc1ccc2c(c1)CCc1c(C(=O)NCCc3ccc(OC)c(OC)c3)noc1-2,.,4%,8,1,-47
Nc1cccc(CCc2nc3ccccc3[nH]2)c1,-0.2,-4%,-7,2,-28
Cc1ccc(C)c(NC(=O)CCN2CCC(C)CC2)c1,0.6,.,.,-6,.
O=C(CNC(=S)N(Cc1ccccc1)Cc1ccccc1F)NCc1ccccc1,8.6,4%,-30,-1,.
COc1ccc2oc(=N)c(C(=O)Nc3ccc(Br)cc3)cc2c1,-1.1,.,.,2,.
COc1ccc(COC(=O)c2cc(S(=O)(=O)N3CCCCC3)ccc2N2CCOCC2)cc1,-0.4,.,.,-11,.
COc1ccc(C(CC(=O)O)NC(=O)c2ccco2)cc1 (centres undefined),-1.2,-4%,3,-16,-11
CCc1c(-c2ccccc2)[n+](=O)c2c(n1[O-])CCC2,1.6,-10%,.,-10,.
O=C(NCc1ccc2c(c1)OCO2)C1CCC(=O)N1C1CCCCC1 (centres undefined),-1.7,-2%,.,-5,.
Cc1cccc(C)c1OCC(=O)N/N=C/c1cccn1C,0.5,-5%,-18,6,-21
COc1ccc(NC(=O)C2CCC(CNS(=O)(=O)c3csc(C(N)=O)c3)CC2)cc1OC (centres undefined),0.4,.,.,3,.
CN(C)/C(CN1CCCCC1)=C1\N=C(c2ccccc2)OC1=O,-4.2,2%,2,-2,-26
CCOC(=O)C1(Cc2cccc(F)c2)CCN(C(=O)c2cscn2)CC1,1.2,4%,-1,-5,.
Cc1ccc(C)c(NC(=O)C2CCCN(S(=O)(=O)c3cccnc3)C2)c1 (centres undefined),1.5,.,.,0,.
O=C(CSc1ccc(Cl)cc1)N/N=C/c1ccc([N+](=O)[O-])o1,-5.2,.,.,100,.
Cc1ccc(C(=O)NNS(=O)(=O)c2ccccc2[N+](=O)[O-])cc1,2.9,-2%,-3,8,-28
COC(=O)C1=C(NC(=O)COc2ccc3ccccc3c2)CCS1,-4.6,.,21,11,-20
Fc1cccc(F)c1CN1CCN(Cc2c(F)cccc2F)CC1,.,-3%,4,5,-28
Cc1ccc(-c2nn3c(C)nnc3c3ccccc23)cc1S(=O)(=O)N(C)CCO,-3.9,-4%,-1,1,-17
COc1cccc(C2/C(=C(\O)c3ccc4c(c3)OCCO4)C(=O)C(=O)N2CC2CCCO2)c1 (centres undefined),0.3,.,.,2,.
COc1cc2c(cc1OC)CN(S(=O)(=O)c1cccc(F)c1)CC2,0.4,.,.,7,.
Cc1ccc(N2C(=O)C3C4C=CC(CNC(=S)Nc5ccc(Cl)cc5)(O4)C3C2=O)cc1 (centres undefined),1.4,3%,11,-1,-27
COc1cc(/C=C(\C#N)c2nc3ccccc3o2)ccc1O,34*,8%,.,-8,.
Cc1ccc(/C=C/S(=O)(=O)NCC(=O)O)cc1,0.1,-5%,5,5,.
COCCn1c(SCc2ccc(C(=O)OC)o2)nc2cc(Cl)ccc2c1=O,-4.6,5%,9,4,-8
Cc1ccc(S(=O)(=O)N2CCC(=O)N(CCOC(=O)Nc3cc(C)cc(C)c3)CC2)cc1,-1.1,-7%,-16,-6,-15
C=CCn1cc(C(=O)NCc2ccc(Cl)cc2)c(=O)c2cc(S(=O)(=O)N(CC)CC)ccc21,0.1,?,-8,99,-12
CC(C)OCCCNc1ncnc2c1nc1n2CCCC1,0.0,.,.,0,.
CC12C(=O)N(Cc3ccccc3)C(=O)C1C1C=CC2C1 (centres undefined),-4.1,-8%,4,-2,-18
COc1ccc(S(=O)(=O)Nc2nc3ccccc3s2)cc1OC,.,-12%,3,-5,-29
CCOCc1cn(CC(=O)c2ccc(Cl)cc2)c(C)nc1=N,-0.3,0%,-7,-11,-4
CN(C)CCOc1ccc(/C(=C(/CCCl)c2ccccc2)c2ccccc2)cc1,33*,60%,.,56,.
COc1ccccc1NC(=S)N1CC(C)(C)C1=O,0.6,.,.,-6,.
COc1ccccc1C(=O)Nc1ccc(NC(=O)c2ccco2)cn1,1.2,.,.,-5,.
Cc1cccc(N2CCN(S(=O)(=O)c3cc(-c4cc(C)no4)ccc3C)CC2C)c1 (centres undefined),1.3,.,.,4,.
NC(=O)CC(NC(=O)Cc1ccc(Br)cc1)c1ccc(NCc2ccc(F)c(F)c2)c([N+](=O)[O-])c1 (centres undefined),0.6,-10%,.,-7,.
CC(=O)Nc1ccc(S(=O)(=O)NC2(C(F)(F)F)NC(=O)N(CC(C)C)C2=O)cc1 (centres undefined),-0.3,6%,6,-7,.
CSc1ccccc1C(=O)Nc1ccc2c(c1)CCC2,0.0,.,.,61,.
CN(Cc1ccccc1)S(=O)(=O)c1ccc2c(c1)CCC(=O)N2,-1.1,.,.,-3,.

# Molecules above with an aryl thioether with sulfur outside any ring (seven):
SMILES,RecA intein inh,Mtb H37Rv,Arbovirus inh,Mtb betalactam,YopH inh
O=C(O)c1ccc(CSc2ccccn2)cc1,0.6,1%,0,2,.
CCNc1nc(NCC)nc(SCCOc2ccc(C)cc2)n1,9.3,15%,0,2,-24
Cc1cccc(NC(=O)CSc2nc(C3CC3)nc3ccccc23)c1,0.6,.,.,3,.
COc1ccc(NC(=O)c2ccc3c(SCC(=O)O)c4c(nc3c2)CCCC4)c(OC)c1,15,2%,10,-3,.
O=C(CSc1ccc(Cl)cc1)N/N=C/c1ccc([N+](=O)[O-])o1,-5.2,.,.,100,.
COCCn1c(SCc2ccc(C(=O)OC)o2)nc2cc(Cl)ccc2c1=O,-4.6,5%,9,4,-8
CSc1ccccc1C(=O)Nc1ccc2c(c1)CCC2,0.0,.,.,61,.

# Additional entries
SMILES,RecA intein inh,Mtb H37Rv,Arbovirus inh,Mtb betalactam,YopH inh
COc1ccccc1C(=O)NCCC(=O)N1CCN(c2ccccc2Cl)CC1,1.2,.,.,-8,.
CCOc1ccc(C(=O)Nc2ccc(NC(=O)c3ccco3)c(Cl)c2)cc1Cl,-1.8,.,-18,-3,-14
CCOC(=O)N1CCN(CC(O)c2c[nH]c3ccc(OC)cc23)CC1 (centres undefined),-1.0,.,.,6,.
Cc1cccc(NC(=O)C2CCCN(C(=O)NC3CCCCC3)C2)c1C (centres undefined),1.4,-5%,1,5,-3
O=C(Nc1ccccc1N1CCCCC1)C1CCN(S(=O)(=O)c2ccccc2C(F)(F)F)CC1,3.0,.,.,-13,.
Cc1nn(-c2ccccc2)c(N2CCCC2)c1/C=N/NC(=O)C1CC1,2.4,2%,11,0,.
Cc1ccc(-c2nnn(CC(=O)N(C)C3CCCCC3)n2)o1,-1.8,1%,-3,-14,.
COc1ccc(OC)c(C(C)NC(=O)c2ccc(Br)cc2)c1 (centres undefined),1.0,-1%,-4,-1,-36
Cc1sc2ncnc(N3CCC(C(=O)NNC(=O)c4ccccc4Cl)CC3)c2c1C,3.3,.,.,?,.
CC(c1nc2ccccc2c(=O)[nH]1)N(C)CCOc1ccc(Cl)cc1 (centres undefined),-0.5,12%,.,89,.
COc1ccc(N2CC(C)(C)C2=O)cc1,1.0,4%,-2,-5,.
COc1ccc(/C=N/NC(=O)C2(O)c3ccccc3-c3ccccc32)cc1,3.0,4%,0,-4,-28
COC(=O)/C=C1/N/C(=N\c2nc(C)cc(C)n2)N(c2cccc(C)c2)C1=O,-1.6,-9%,5,-6,-15
Cc1nc2cc(NC(=O)NCCCO)ccc2o1,-3.6,3%,-1,8,.
Cc1ccc(S(=O)(=O)N2CCN(C(=O)CN3CCCCC3)C2)cc1,2.6,-17%,0,-6,-16
CCOC(=O)c1ccc(N2C(=O)CC(N3CC(C)OC(C)C3)C2=O)cc1 (centres undefined),0.7,-4%,-2,-1,-4
O=C(CSc1cccc[n+]1[O-])NC(=O)c1ccc(OC(F)F)cc1,-1.7,2%,1,-2,.
O=Cc1cn(-c2ccc(F)cc2)c2ccccc12,2.1,9%,-1,10,3
Cc1cccc(C)c1OCC(=O)N1CCc2ccccc2C1,1.7,.,.,3,.
O=C1C2C3C=CC(C3)C2C(=O)N1CCCO (centres undefined),0.9,-14%,7,-4,3

# Exported as labelled records: entries from further up
Molecule: O=Cc1cn(-c2ccc(F)cc2)c2ccccc12
  RecA intein inh: 2.1
  Mtb H37Rv: 9%
  Arbovirus inh: -1
  Mtb betalactam: 10
  YopH inh: 3
Molecule: Cc1cccc(C)c1OCC(=O)N1CCc2ccccc2C1
  RecA intein inh: 1.7
  Mtb H37Rv: .
  Arbovirus inh: .
  Mtb betalactam: 3
  YopH inh: .
Molecule: O=C1C2C3C=CC(C3)C2C(=O)N1CCCO (centres undefined)
  RecA intein inh: 0.9
  Mtb H37Rv: -14%
  Arbovirus inh: 7
  Mtb betalactam: -4
  YopH inh: 3

# Further results follow.
SMILES,RecA intein inh,Mtb H37Rv,Arbovirus inh,Mtb betalactam,YopH inh
CN1CCN(NC(=O)c2ccc(S(=O)(=O)N3CCCCCC3)cc2)CC1,2.7,6%,8,-6,.
COc1cc(NC(=O)COc2ccc3c(C)cc(=O)oc3c2C)cc(OC)c1OC,-3.5,.,.,6,.
CS(=O)(=O)N(CC(=O)O)c1ccc(C23CC4CC(CC(C4)C2)C3)cc1,-3.0,.,.,8,.
CCCCN=C(Nc1ccc(Cl)cc1)c1cccnc1,-2.5,-14%,-7,-7,-36
Cc1cccn2cc(-c3ccc(NC(=O)Cc4ccccc4)cc3)nc12,-1.5,-6%,-1,0,.
COC(=O)COc1cccc(NC(=O)c2ccccc2)c1,-1.2,11%,-8,93,-40
Cc1noc(C)c1CSc1nnc(-c2ccccc2)n1N,3.0,-2%,10,-11,0
Cc1cc(C)cc(OCC(=O)OCC(=O)N(CC(C)C)c2c(N)n(Cc3ccccc3)c(=O)[nH]c2=O)c1,0.6,.,.,-8,.
COC(=O)CNC(=O)c1ccc(OC2CCN(C(=O)C3CC3)CC2)cc1,-0.1,1%,4,-1,.
CC(C)(C)C(=O)NC(=S)Nc1ccc(S(=O)(=O)Nc2nccs2)cc1,-1.5,-1%,-2,-5,.
Nc1ccc(Oc2ccc3c(c2)C(=O)NC3=O)cc1,-1.5,.,.,0,.
CCOC(=O)c1c(C)c(C(=O)NCC2CCCO2)c(C)n1C (centres undefined),-0.6,-4%,10,0,-13
Oc1c(Br)cc(/C=N/Nc2ccc(Cl)nn2)cc1Br,0.2,.,.,0,.
N#CCSc1nc2c(c(=O)n1Cc1ccco1)C1(CCCC1)Cc1ccccc1-2,-1.9,-12%,.,42,-27
Cc1ccc(-c2csc3ncn(CC(=O)N4CCOCC4)c(=O)c23)cc1,-1.2,-4%,4,-7,3
COc1ccc(C2C(C#N)=C(N)Nc3onc(C(C)(C)C)c32)c(OC)c1 (centres undefined),2.9,1%,-10,5,-22
